# Bioassay records deposited in PubChem by National Center for Advancing Translational Sciences (NCATS).
# TRPML1 blocker: human mucolipin-1 channel inhibition; TRPML1-inducible cells, Ca2+ dye fluorescence, FDSS; stronger effect = lower value; inhibition of EC80 agonist-evoked calcium signal; AID 624415; Q9GZU1; 390,000 tested, 0.02% active; activity change, negative = inhibition, % (no concentration beside the values); in the data active means activity change below about -50%; inconclusive means about -30% to -50%; inactive means above about -30%;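 note: stimulus is agonist 54-4 at its EC80 concentration; % is set by controls: 0 for no effect and ±100 for the full control effect; compound concentration not given in the record; the text of the record puts the active cut at -80%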
#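 Calcium fluorescence in TRPML1-DL cells induced overnight with Tet: a 110 s read after compound pin addition, then a 110 s antagonist read after challenge with 54-4 at 4 uM final (EC80).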
# CtBP-E1A inh: CtBP/E1A binding inhibition | AlphaScreen GST-E1A/His-CtBP binding, 1536-well; stronger effect = lower value; control for the full effect not named in the record | AID 651724 | 340,000 tested, 0.49% active | activity change, % (concentration not given with the values); in the data active means activity change below about -65%; inconclusive means about -30% to -65%; inactive means above about -30%; note: % is set by controls: 0 for no effect and ±100 for the full control effect
#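 GST-E1A and His-tagged CtBP (125 nM each as 5X stock) were preincubated with pin-transferred compound for 2 h at 37 °C in the dark, then glutathione donor and nickel acceptor beads were added for 1 h before AlphaScreen reading.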
# Six1-Eya2 blk: blocks human Six1 binding to Eya2; 360,000 tested, 0.56% active; activity change, % (test concentration not listed); AlphaScreen GST-Six1/His-Eya2 binding, biochemical; stronger effect = lower value; control for the full effect not named in the record; in the data active = activity change below about -65%; inconclusive = about -30% to -65%; inactive = above about -30%; note: % is set by controls: 0 for no effect and ±100 for the full control effect; compound concentration not given in the record
#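 AlphaScreen luminescence read after one hour at 37 °C in darkness. Pin-transferred compounds met GST-Six1 and His-Eya2 protein (5X stock 250 nM/500 nM) plus glutathione donor and Ni-chelate acceptor beads (5X, 50 ug/mL).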
# TRPML1 agonist: activates the human TRPML1 channel | Q9GZU1 | TRPML1-expressing cells, Ca2+ dye fluorescence, FDSS; host cell line not named in the record; reference of the full effect not given here | activation, % (concentration not given with the values) | 410,000 tested, 0.12% active | AID 624414; in the data active = activation above about 50%; inconclusive = about 30% to 50%; inactive = below about 30%; note: 0% is about no effect; the text of the record puts the active cut at 80%
#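 In this qHTS format, compounds were pin-transferred onto Ca8-dye-loaded TRPML1-DL cells induced with Tet overnight, and intracellular Ca2+ fluorescence was recorded kinetically for 110 s after a 10 s baseline. A subsequent 4uM final 54-4 (EC80) addition followed by a second 110 s read served as the antagonist phase.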
# D2 PAM: human D2 receptor positive allosteric modulation; P14416; DiscoveRx D2 beta-arrestin cells, luminescence, 90 min; 100% = 57 uM dopamine signal; potentiation, % (test concentration not listed); 360,000 tested, 0.23% active; AID 624464; active = potentiation of 50% or more; inconclusive = 30% to 50%; inactive = 30% or less;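 note: compound concentration not given in the record; tested on top of an EC20 dose of dopamine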
#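 D2 cells co-treated with compound plus 50 nM dopamine (EC20) for 90 min at 37 deg C to detect potentiation. Beta-arrestin recruitment was read as enzyme-fragment luminescence after 1 h at ambient temperature. Full response was set by 57 uM dopamine.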
# TRPV1 PAM: enhances activation of the human vanilloid receptor TRPV1; Q8NER1; TRPV1-expressing cells, Fluo-8 calcium influx, capsaicin EC20 potentiation; host cell line not named in the record; control for the full effect not named in the record; potentiation, % at 8.33 µM; 320,000 tested, 0.02% active; active means potentiation above 80%; inconclusive means 30% to 80%; inactive means below 30%; note: 0% is about no effect
# Target sequence (Q8NER1 whole entry, looked up): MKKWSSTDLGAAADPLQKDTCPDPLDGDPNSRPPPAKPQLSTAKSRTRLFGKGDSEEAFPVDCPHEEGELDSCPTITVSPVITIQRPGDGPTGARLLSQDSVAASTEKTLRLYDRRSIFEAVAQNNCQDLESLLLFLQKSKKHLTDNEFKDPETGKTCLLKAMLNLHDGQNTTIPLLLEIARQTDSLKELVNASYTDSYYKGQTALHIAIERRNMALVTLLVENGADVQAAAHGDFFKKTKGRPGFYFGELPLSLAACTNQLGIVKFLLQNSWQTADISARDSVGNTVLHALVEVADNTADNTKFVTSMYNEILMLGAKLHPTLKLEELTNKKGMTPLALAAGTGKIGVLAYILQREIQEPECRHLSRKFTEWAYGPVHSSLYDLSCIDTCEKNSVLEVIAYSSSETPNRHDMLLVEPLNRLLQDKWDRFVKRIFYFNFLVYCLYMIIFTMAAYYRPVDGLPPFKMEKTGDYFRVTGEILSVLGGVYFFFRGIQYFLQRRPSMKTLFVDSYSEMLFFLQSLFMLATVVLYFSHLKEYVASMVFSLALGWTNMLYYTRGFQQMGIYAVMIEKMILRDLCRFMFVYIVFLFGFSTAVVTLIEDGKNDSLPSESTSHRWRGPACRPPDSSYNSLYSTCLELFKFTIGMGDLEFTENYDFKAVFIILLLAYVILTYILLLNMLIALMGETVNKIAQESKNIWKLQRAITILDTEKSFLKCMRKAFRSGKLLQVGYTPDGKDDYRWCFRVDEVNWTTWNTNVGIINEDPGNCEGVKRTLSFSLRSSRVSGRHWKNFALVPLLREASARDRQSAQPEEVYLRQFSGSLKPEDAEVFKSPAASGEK
#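 Cells expressing TRPV1 were dye-loaded with Fluo-8 and read kinetically: 10 s baseline, 3 min after compound (agonist portion), then 2 min after EC20 capsaicin (allosteric enhancer portion). Calcium-bound dye fluorescence at 480/520 nm.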
# The depositor's hits bear a star; ? = inconclusive; . = no result given; & = joins results of further samples. Random draw from the library; any-hit rate near 0.95%.
SMILES,TRPML1 blocker,CtBP-E1A inh,Six1-Eya2 blk,TRPML1 agonist,D2 PAM,TRPV1 PAM
COc1ccc(S(=O)(=O)N2CCN(C(=O)N3CCOCC3)C2C)cc1 (stereo unspecified),2,0,4,-0.5,-10,-10
CCc1nc2ccccc2n1CC(O)COCC1CC=CCC1 (stereo unspecified),9,.,-2,4.0,-3,-3
O=C1CN(C(=O)COC(=O)/C=C/c2ccco2)c2ccccc2N1,27,-2,0,0.2,-4,6
C=CCn1c(COc2ccc(CC)cc2)nnc1SCC(=O)N(C)C1CCS(=O)(=O)C1 (stereo unspecified),7,2,1,-0.5,-6,-12
COc1ccc(OC)c(NC(=O)C2CCN(c3nc(C)cc(C)n3)CC2)c1,-10,11,0,1.1,-4,2
N#Cc1c2n(c3c(=O)n(Cc4ccc(Cl)cc4)cnc13)CCCC2,-5,7,2,0.6,-4,-6
COc1cccc(NC(=O)Nc2nc(SC(C)(C)C)ns2)c1,-3,4,0,4.1,-2,-3
Cc1cc(NC(=O)c2ccccc2)no1,4,2,8,-0.7,-4,5
C[C@@H]1CN([C@H](C)CO)C(=O)c2c(c3ccccc3n2C)-c2ccccc2CO[C@@H]1CN(C)S(=O)(=O)c1cccs1,-5,-9,-10,0.8,-9,.
COc1ccc2c(c1OC)C(=O)NC(C)=C(C(=O)OC(C)(C)C)C2O (stereo unspecified),6,1,0,0.5,11,?
O=C(CSc1n[nH]c(=O)n1-c1cccnc1)N1CCOCC1,-9,-12,8,1.0,-3,0
CCCCOc1ccc(NC(=O)C2OC3OC(C)(C)OC3C3OC(C)(C)OC23)cc1 (stereo unspecified),0,0,18,1.3,-10,30
CCN(CC)C(=O)NC(c1ccc(C)c(F)c1)C(Cl)(Cl)Cl (stereo unspecified),9,-12,1,1.4,-15,4
CCOC(=O)c1ccc(NC(=O)c2nc(SC)ncc2Cl)cc1,19,-5,7,-0.5,-6,7
COc1ccc(CCN2C(=S)N(C)C(=O)C2CC(=O)Nc2ccc(F)cc2)cc1 (stereo unspecified),-8,-19,-7,2.7,-3,1
COc1ccc(CNC(=O)[C@H](C)NC(=O)C2CCN(C(=O)[C@H](CCSC)NC(=O)OC(C)(C)C)CC2)cc1,.,6,3,.,-19,1
COc1ccc(C2C(C(=O)N3CCOCC3)=C(C)NC3=C2C(=O)CC(C)(C)C3)cc1O (stereo unspecified),-28,-1,9,1.8,-10,-9
O=C(OCC(=O)N1CCc2ccccc21)c1cc(S(=O)(=O)N2CCOCC2)ccc1F,-14,1,-1,-0.7,-2,-5
CCC(C)NC(=O)Cn1cnc2sc(C)c(S(=O)(=O)N3CCCCC3)c2c1=O (stereo unspecified),-4,0,-16,-0.5,-13,-1
COc1cc(C(=O)OCC(=O)N2CCCCCC2)c([N+](=O)[O-])cc1OC,-4,4,0,-0.1,-1,.
O=C(c1ccccc1-c1ccccc1)N1CCOCC1,-8,7,5,-0.3,-22,-3
COC(=O)CC(c1ccccc1F)N1Cc2ccccc2C1=O (stereo unspecified),-1,0,-9,0.7,-1,11
NC(=O)c1ccc(NC(=O)Nc2ccc3c(c2)OCO3)cc1,3,-4,-7,0.4,-7,-2
COc1cccc(C=NCCNC(=O)c2nonc2N)c1O,35,4,9,0.2,6,9
Cc1ccc(S(=O)(=O)N2C[C@]3(O)C[C@@H]4C(=O)N(c5ccccc5)C(=O)[C@@H]4C[C@]3(OC(=O)NC3CC3)C2)cc1,-15,-5,2,-0.3,0,.
O=C(COC(=O)c1cc(Br)ccc1O)NC1CCCCCC1,2,0,7,1.2,17,-15
COc1ccc(/C=C/C(=O)O/N=C(\N)c2ccccc2)cc1OC,-8,-19,9,-1.8,52*,-1
Cc1ccc(COC(=O)c2nn(C)c(=O)c3ccccc23)cc1,-18,-9,4,0.6,-2,4
O=C(CN1C(=O)C2C3c4ccccc4C(c4ccccc43)C2C1=O)Nc1ccccc1C(=O)O (stereo unspecified),-3,-6,-4,-0.2,2,1
O=C(Nc1cc(Cl)cc(Cl)c1)N1CCN(C(=O)C2CCCO2)CC1 (stereo unspecified),-12,-10,11,-0.3,-18,-5

# Taken from above, 4 compounds:
SMILES,TRPML1 blocker,CtBP-E1A inh,Six1-Eya2 blk,TRPML1 agonist,D2 PAM,TRPV1 PAM
COc1ccc(CNC(=O)[C@H](C)NC(=O)C2CCN(C(=O)[C@H](CCSC)NC(=O)OC(C)(C)C)CC2)cc1,.,6,3,.,-19,1
COc1ccc(C2C(C(=O)N3CCOCC3)=C(C)NC3=C2C(=O)CC(C)(C)C3)cc1O (stereo unspecified),-28,-1,9,1.8,-10,-9
O=C(OCC(=O)N1CCc2ccccc21)c1cc(S(=O)(=O)N2CCOCC2)ccc1F,-14,1,-1,-0.7,-2,-5
CCC(C)NC(=O)Cn1cnc2sc(C)c(S(=O)(=O)N3CCCCC3)c2c1=O (stereo unspecified),-4,0,-16,-0.5,-13,-1

# Gathered by group: those above with a tert-butyl group.
SMILES,TRPML1 blocker,CtBP-E1A inh,Six1-Eya2 blk,TRPML1 agonist,D2 PAM,TRPV1 PAM
COc1cccc(NC(=O)Nc2nc(SC(C)(C)C)ns2)c1,-3,4,0,4.1,-2,-3
COc1ccc2c(c1OC)C(=O)NC(C)=C(C(=O)OC(C)(C)C)C2O (stereo unspecified),6,1,0,0.5,11,?
COc1ccc(CNC(=O)[C@H](C)NC(=O)C2CCN(C(=O)[C@H](CCSC)NC(=O)OC(C)(C)C)CC2)cc1,.,6,3,.,-19,1

# Compound profiles, as listed above. Order of values: TRPML1 blocker, CtBP-E1A inh, Six1-Eya2 blk, TRPML1 agonist, D2 PAM, TRPV1 PAM
# Cc1ccc(S(=O)(=O)N2C[C@]3(O)C[C@@H]4C(=O)N(c5ccccc5)C(=O)[C@@H]4C[C@]3(OC(=O)NC3CC3)C2)cc1 reads -15, -5, 2, -0.3, 0, .
# O=C(c1ccccc1-c1ccccc1)N1CCOCC1 reads -8, 7, 5, -0.3, -22, -3
# O=C(OCC(=O)N1CCc2ccccc21)c1cc(S(=O)(=O)N2CCOCC2)ccc1F reads -14, 1, -1, -0.7, -2, -5
# COc1cc(C(=O)OCC(=O)N2CCCCCC2)c([N+](=O)[O-])cc1OC reads -4, 4, 0, -0.1, -1, .

# Remaining list, next part
SMILES,TRPML1 blocker,CtBP-E1A inh,Six1-Eya2 blk,TRPML1 agonist,D2 PAM,TRPV1 PAM
NS(=O)(=O)c1ccc(CCNC(=O)Cc2ccc(Cl)cc2)cc1,-16,-1,-17,0.2,-7,1
O=C(COC(=O)CC1CC2CCC1C2)NCc1ccccc1 (stereo unspecified),32,8,3,-0.2,-3,.
CCOc1cc(NC(=O)C2CCCO2)c(OCC)cc1NC(=O)C1CC1 (stereo unspecified),14,1,-2,0.7,-3,-17
COc1ccc(/C=C2\SC(=O)N(CCNC(=O)C3CSC4(C)CCC(=O)N34)C2=O)cc1 (stereo unspecified),-5,-2,-9,0.3,0,4
O=C(NCCCn1ccnc1)c1cc(-c2cccs2)on1,14,-16,-4,-0.3,-5,-4
C/C(=C\C(=O)c1ccccc1)Nc1ccc(Br)c(Cl)c1,-5,6,4,1.6,6,-48
Cc1cc(/C=N/NC(=O)c2cccnc2)c(C)n1CC(C)C,2,3,-13,0.2,15,-10
Cc1ccc(N2CCN(C(=S)Nc3ccccc3)CC2)cc1,6,.,-4,2.3,-1,26
Cc1cc(OCC(=O)Nc2ccccc2N2CCCC2)ccc1C(C)C,-8,-4,-12,0.3,-15,2
COc1cc(NC(=O)c2ccc(-c3c(C)noc3C)c3ccoc23)cc(OC)c1OC,.,-5,-10,-1.1,-5,.
COc1ccc(-c2n[nH]c(C)c2-c2ccccc2OC)c(O)c1,-1,-6,17,-0.1,2,-1
O=C(Nc1cccc(Cl)c1)c1nc[nH]c1C(=O)NCCCCNC(=O)c1[nH]cnc1C(=O)Nc1cccc(Cl)c1,-6,7,5,-0.1,-4,.
COc1ccc(C/C(C)=N/NC(=S)Nc2ccc(C(C)C)cc2)cc1,19,2,-3,-0.7,-14,-7
CCOC(=O)c1cc(-c2ccccc2C)n(Cc2cc(C)no2)n1,7,5,0,2.0,17,-8
O=c1[nH]nc(CNc2ccc(OC(F)(F)F)cc2)c2ccccc12,0,.,-9,-0.1,0,-3
Cc1cc2nnc(SC3CCOC3=O)n2c2ccccc12 (stereo unspecified),6,-1,1,0.8,-3,1
COc1ccc(C2/C(=C(/O)c3ccc(Br)cc3)C(=O)C(=O)N2C)cc1 (stereo unspecified),.,.,7,.,19,16
CN(C)/C=C/C(=O)c1cc(F)cc(C(F)(F)F)c1,-7,-3,7,1.6,-8,12
O=C(Cc1ccc(S(=O)(=O)N2CCCCC2)cc1)NCc1ccc(Cl)cc1,17,-5,-1,0.4,0,-6
CC(c1ccccc1)C1C(C#N)=C(N)OC2=C1C(=O)CC(C)(C)C2 (stereo unspecified),-5,3,26,0.2,16,-5
Cc1ccc(C=Nc2ccccc2C(N)=O)s1,32,0,14,0.0,0,1
O=C(NCCCN1CCOCC1)c1ccc(Br)cc1,2,0,24,0.5,-25,21
COC(=O)c1ccccc1NC(=O)N1CCN(C/C=C/c2ccccc2)CC1,0,-5,-2,-0.4,-11,3
c1ccc(COc2ccccc2CNc2nn[nH]n2)cc1,-9,.,3,0.5,-3,-2
CC(=O)Oc1cccc(Nc2ncnc3ccccc23)c1,-3,-7,-1,0.3,-3,-11
COc1ccc(C(=O)N(Cc2sccc2C)C2CCS(=O)(=O)C2)cc1 (stereo unspecified),18&9,6,1,-0.4&-0.6,-14,-2
O=C(CN(CC1CCCO1)C(=O)CNS(=O)(=O)c1ccc(F)cc1)NCc1ccccc1 (stereo unspecified),-13,8,6,-0.5,-3,3
CCCOC(=O)Cn1cnc2scc(-c3ccc(OC)cc3)c2c1=O,1,-7,3,-0.3,0,2
COc1cc(NC(=O)CN2C(=O)COc3ccccc32)cc(OC)c1,-11,0,-4,-0.4,-1,.
CCOC(=O)c1ccc(N2C(=O)C=C(N3CCOCC3)C2=O)cc1,.,-12,1,.,-12,-21
c1ccc(CN2CCN(C3CCCSc4ccccc43)CC2)cc1 (stereo unspecified),-11,3,-7,-0.5,-21,.
Cc1ccc2nc(N(CCN(C)C)C(=O)c3ccc4ccccc4c3)sc2c1,17,-13,-14,-1.1,-43,-3
COc1ccc(-n2c(C)nc(N)c2C(=O)c2ccccc2)cc1,-18,-5,-2,0.4,-8,-4
Oc1oc(-c2ccccc2)nc1C=Nc1ccccc1,21,9,-3,-0.6,-22,0
Cc1ccc(-c2nc(N)sc2CC(=O)OCC(=O)NCC2CCCO2)cc1 (stereo unspecified),-23,-6,0,1.0,13,-5
Fc1ccc2[nH]c3c(c2c1)CN(C(=S)NCc1ccccc1)CC3,-13,-5,-18,0.9,-12,-4
O=C(/C=C/c1ccco1)c1ccccc1O,0,.,6,-0.8,-5,10
CCCSc1nnc(Cn2c(=O)sc3ccccc32)n1C,?,-2,-6,0.6,-6,22
